Screens from PubChem.
VDR inh – Inhibitors of the vitamin D receptor (VDR): qHTS | Vitamin D3 receptor (Homo sapiens), P11473 | VDR-SRC2-3 peptide fluorescence polarization, 2 h | Potency, µM, inactives show max response, negative = inhibition, usual class: inhibitors | 400,000 compounds, 0.93% hits; active = well fitted inhibition curve with a large enough effect; inconclusive = small, poorly fitted or top-dose-only effect, or another doubt; inactive = no such curve, though single readings can be large or run the other way; also: series mostly up to about 120 µM
Target sequence (P11473 whole entry, looked up): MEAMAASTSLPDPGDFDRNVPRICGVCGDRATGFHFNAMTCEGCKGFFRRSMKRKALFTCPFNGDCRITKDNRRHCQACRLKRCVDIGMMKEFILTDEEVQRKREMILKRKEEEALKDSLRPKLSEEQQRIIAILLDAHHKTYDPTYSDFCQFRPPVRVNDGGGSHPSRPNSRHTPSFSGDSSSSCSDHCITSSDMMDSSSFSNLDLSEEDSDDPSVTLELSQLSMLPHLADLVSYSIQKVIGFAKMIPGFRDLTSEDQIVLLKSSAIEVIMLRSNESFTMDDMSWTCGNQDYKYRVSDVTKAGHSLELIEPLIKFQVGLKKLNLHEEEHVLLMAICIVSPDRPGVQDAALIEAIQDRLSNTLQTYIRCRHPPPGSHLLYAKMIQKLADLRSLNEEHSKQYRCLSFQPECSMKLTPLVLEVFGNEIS
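VDR–SRC2-3 interaction, FP format. Cmpds 23 nl via pintool, brief spin, 2 h ambient incubation.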
* marks the source's active call; other numbers are inactive results; ? = inconclusive; & = joins results of further samples; [ ] = remark or other dose. % is scaled to controls: 0 for no effect and ±100 for the full control effect; potency is read from the fitted curve at half-maximal effect. The list is partial; rates above refer to the full screens.

SMILES,VDR inh
CC(=N\O)/C(CN(C)C)=N/O,3.5%
Cc1c([N+](=O)[O-])c2ccc(O)cc2n1-c1ccccc1,3.1%
COc1cc(C(=O)NC(c2ccccc2)c2ccccc2)cc(OC)c1C,-3.0%
CCc1c(O)nc(N2CCN(Cc3ccccc3)CC2)[nH]c1=O,5.2%
CC(NC(=O)CN1CCN(CC(=O)Nc2ccccc2Cl)CC1)c1ccc(Br)cc1 (stereo not drawn),-11.0%
COc1ccc(C(C)=O)cc1COC(=O)CNC(=O)c1cc(C)cc(C)c1,-6.6%
O=C(N/N=C/c1cc2c(cc1Cl)OCO2)c1cc(-c2ccccc2)n[nH]1,-10.3%
Cc1c(C(=O)Nc2cccnc2Cl)oc2ccccc12,-14.2%
CC(=O)Oc1ccccc1/C=C1\CCOC1=O,4.6%
Cc1cc(=O)oc2cc(NC(=O)Cc3ccccc3[N+](=O)[O-])ccc12,-8.7%
Fc1ccccc1CN1CCN(c2ncccn2)CC1,4.0%
COC(=O)Nc1cc(C(=O)c2ccc(Cl)cc2Cl)c[nH]1,-23.8%
COc1ccc(NC(=O)COc2ccccc2Cc2ccccc2)cn1,-13.1%
COCC(=O)Nc1cccc2ccccc12,31.6%[activator]
COc1ccccc1-c1nnc(NC(=O)Cc2ccccc2)o1,-20.4%
Cc1ccccc1-n1c(SCC(=O)N2CCOCC2)nc(O)c(Cc2ccccc2)c1=O,-3.7%
Cn1c(=S)c2[nH]c(SCCC(C)(C)C)nc2n(C)c1=O,-29.7%
O=C(O)c1cccc(C(=O)Cc2ccccc2)c1,105.2%[activator]
Cc1cccc(OCCC(=O)Nc2ccc(Cl)cc2F)c1,4.8%
COc1cccc(CSc2nc3n(n2)C(c2cccnc2)C(C(=O)Nc2ccccc2C)=C(C)N3)c1 (stereo not drawn),4.4%
COc1ccc(-c2c(-c3ccc(OC)c(F)c3)c3ccccc3n2C)cc1,8.4%
CC1(OC(=O)C2CCCC2)C(=O)C=C2C=C(c3ccsc3)OC=C2C1=O (stereo not drawn),?
CC(C)c1ccc(NC2CCCN(C(=O)CCN3CCOCC3)C2)cc1 (stereo not drawn),-24.1%
CCc1ccc(NCc2cccn2-c2nnc(N3CCCCCC3)s2)cc1,-13.6%
Cc1ccc(N2C(=O)CC(NNc3nc4ccccc4s3)C2=O)cc1C (stereo not drawn),5.9%

Following part
SMILES,VDR inh
CN(Cc1nc2ccccc2c(=O)[nH]1)C(=O)c1cc(-c2ccc(Br)cc2)nc2ccccc12,-14.0%
O=C(Nc1ccc(C(F)(F)F)cc1)c1cc(S(=O)(=O)NC2CCCCCC2)ccc1F,5.9%
Cc1cc(-c2ccc(C)c(S(=O)(=O)N3CC(=O)Nc4ccccc43)c2)on1,-9.5%
CCn1c(SCC(=O)Nc2ccc(OC)c(S(=O)(=O)N3CCCCC3)c2)nnc1C1CC1,-20.1%
C=CCn1c2c(c(=O)[nH]c1=S)CN(C(C)c1ccccc1)CN2 (stereo not drawn),-24.1%
CC(=O)c1csc(COc2cc(Cl)cc(Cl)c2)n1,1.8%
COc1ccc(CN2CCC(Oc3ccc(C(=O)N4CCCC4)cc3)CC2)c(F)c1,5.8%
COc1ccc(-c2[nH]ncc2CN2CCCC(C(=O)c3cccc(OC)c3)C2)cc1 (stereo not drawn),-2.6%
CC(C)Oc1ccccc1/C=N/NC(=O)C1CCCC1,2.8%
O=C1c2ccccc2C(=O)N1c1ccc(S(=O)(=O)N2CCCCC2)cc1,-9.9%
CC(C)c1ccc(N2C(=O)C(Cl)=C(N3CCOCC3)C2=O)cc1,-15.8%
O=C(COC(=O)c1ccc(Cl)s1)c1ccc[nH]1,7.2%
Cc1cc(C)n2nc(C(=O)N/N=C/c3cn(C)nc3C)nc2n1,-3.0%
O=C1C=C(c2cccc(Br)c2)C[C@@H](c2ccc(F)cc2)C1,7.9%
COc1ccccc1N1CCN(Cc2cccs2)CC1,-5.1%
Cc1cc(C)cc(N(CC(=O)Nc2ccc(-c3nc4ccc(C)cc4s3)cc2)S(C)(=O)=O)c1,-9.4%
CCCCC(=O)N1C/C=C\C(c2ccc(OC)cc2)N(Cc2ccc(F)cc2)C(=O)C1Cc1ccccc1 (stereo not drawn),-6.7%
Cc1ccc(C)c(Nc2nn3c(=O)c4ccc(C(=O)NCCC5=CCCCC5)cc4nc3s2)c1,8.8%
COc1cc(OC)cc(C(=O)Nc2c(F)cccc2F)c1,14.9%
CCC(C)Sc1cc(C(F)(F)F)c(C(=O)Nc2ccc(Cl)cc2)cn1 (stereo not drawn),11.8%
CC12CCC(=O)N1C(C(=O)NNC(=O)c1ccc(Br)cc1)CS2 (stereo not drawn),-17.2%
CCCN1CCC(=NNc2ccc(S(=O)(=O)N(CC)CC)cc2[N+](=O)[O-])CC1,-18.7%
N/C(Cc1ccc(Cl)cc1)=N\OC(=O)Cc1ccc([N+](=O)[O-])cc1,-18.0%
C=CCNC(=O)CC1Nc2c3ccccc3nc(=S)n2C1=O (stereo not drawn),-6.5%
COc1ccccc1N1CCN(C(=O)CCc2ccccc2)CC1,-0.2%

The list continues.
SMILES,VDR inh
CCN(CC)CCNC(=O)C12CC3CC(CC(C3)C1)C2,-8.0%
Oc1ccc(C=NNc2ccccn2)c(O)c1,10.4%
O=C(CSc1nnnn1-c1ccccc1)NCC1(N2CCCCC2)CCCCC1,4.8%
COc1ccc(/C(O)=C2/C(=O)C(=O)N(CCN3CCOCC3)C2c2ccccn2)cc1OC (stereo not drawn),2.0%
COc1ccc([C@@H]2[C@H]3C(=O)N(c4cccc(C(F)(F)F)c4)C(=O)[C@H]3ON2C)cc1,4.1%
Cc1cc(OC(=O)C(C)(C)C)c([N+](=O)[O-])c(=O)[nH]1,-5.5%
CCN(CC(=O)Nc1ccc2c(c1)OCO2)Cc1nc2ccccc2c(=O)[nH]1,-1.5%
COC(=O)c1cccc(NS(C)(=O)=O)c1,4.0%
Cc1c(C)c2ccc(O)c(CN3CCCC3)c2oc1=O,-7.6%
COc1ccc(-n2c(SCc3ccccc3)nc3c([nH]c4ccccc43)c2=O)cc1,2.0%
COc1ccc(Sc2cc(C(F)(F)F)nc(-c3ccccn3)n2)cc1,-9.3%
CS(=O)(=O)Nc1ccccc1NS(C)(=O)=O,7.4%
CCCCOc1ccc(C(=O)NC(=S)Nc2ccc(CN3CCOCC3)cc2)cc1,-19.6%
CC(Sc1nc2ncc(Cl)cc2[nH]1)C(=O)NC1(C#N)CCCCC1 (stereo not drawn),-1.9%
COc1ccc2[nH]c(-c3ccc(F)cc3F)cc(=O)c2c1,-0.1%
COc1ccc(F)cc1S(=O)(=O)N1CCN(C(=O)c2ccco2)CC1,-8.3%
CC(C)(C)c1ccc(-c2nnc(SCC(=O)NCC3CCCO3)n2N)cc1 (stereo not drawn),-4.5%
N#C/C(=C\c1ccc(Cl)cc1)c1nc2ncccc2[nH]1,2.1%
COC(=O)c1ccc(Cl)cc1NC(=O)N1CCC(CN2CCC(C)CC2)CC1,18.0%
O=C(COC(=O)/C=C/c1cccc(Cl)c1)NC(=O)NCc1ccccc1,-14.6%
Cc1ccccc1OCC(=O)OCC(=O)NCc1ccc2c(c1)OCO2,-12.1%
Cc1cccc(NC(=O)c2cccc3c2-c2ccccc2C3=O)n1,-4.9%
Cc1cc(NC(=O)c2ccco2)ncc1NC(=O)Cc1ccccc1,-1.2%
COc1ccc(NC(=O)Cn2nnc(C(=O)NCc3cccs3)c2N)cc1,-5.8%&-3.8%
C=CC[C@@H](Cc1ccc(F)cc1)C(=O)OC[C@H]1CCCN1C(=O)[C@H](CC=C)CC(=O)N[C@H](CO)Cc1ccccc1,13.8%

(continued)
molecule	VDR inh
Cc1ccc(CNC(=O)CNS(=O)(=O)c2cccc3nsnc23)cc1	13.2%
CCCOc1ccc(C2C(=O)N(C3CCCCCC3)CC(=O)N2Cc2ccccc2OC)cc1OC (stereo not drawn)	22.6%
COC(=O)C1C2C=CC3(CN(C(C)c4ccc(OC)cc4)C(=O)C13)O2 (stereo not drawn)	7.3%
CC1(C2CC2)NC(=O)N(CC(=O)N2CCN(c3ccccc3Cl)CC2)C1=O (stereo not drawn)	-29.9%
COc1ccc(N(CC(=O)N2CCc3ccccc3C2)S(=O)(=O)c2c(C)nn(C)c2C)cc1	-0.5%
O=C(COc1ccccc1Cl)N(Cc1cccs1)C1CCS(=O)(=O)C1 (stereo not drawn)	-1.5%
O=C1CCS/C(=N\N=C\c2ccc(Cl)cc2Cl)N1	4.3%
CC1(c2ccc(OC(F)F)cc2)NC(=O)N(CC(=O)NC2CCCCC2)C1=O (stereo not drawn)	-16.8%
O=C(NCC1CCCO1)c1cc(-c2ccc(F)cc2)no1 (stereo not drawn)	?
O=S(=O)(Nc1ccc2[nH]ncc2c1)c1ccccc1Cl	-8.1%

2 successive compounds out of the list so far, quoted:
molecule	VDR inh
O=C(NCC1CCCO1)c1cc(-c2ccc(F)cc2)no1 (stereo not drawn)	?
O=S(=O)(Nc1ccc2[nH]ncc2c1)c1ccccc1Cl	-8.1%

Next structures follow:
molecule	VDR inh
Cc1cc(C)c2cc(C(=O)Nc3ccccc3)[nH]c2c1	-7.6%
Cc1nc2cnc(N3CCN(C)CC3)nc2n(Cc2ccc(F)cc2)c1=O	-7.1%
O=C(Nc1ccc(Nc2ccccc2)cc1)N1CCOCC1	14.8%
CCCCCn1c(=O)[nH]c2cc(C(=O)NC3CCN(Cc4ccccc4)CC3)ccc2c1=O	8.6%
Cn1c(=O)[nH]c(=O)c2c1nc(NCCc1ccccc1)n2Cc1ccc(F)cc1	-22.7%
N#CCCN(CC(=O)O)S(=O)(=O)c1ccccc1	-12.1%
CCCCN(CC)CCNC(=O)CCC(=O)Nc1ccc2nc(N3CCN(C)CC3)cc(C)c2c1	-20.4%
O=C(CSCc1nc2c(nnn2Cc2ccc(F)cc2)c(=O)[nH]1)Nc1c(Cl)cc(Cl)cc1Cl	-7.5%
Nc1c(NCCc2ccccc2)c2ccccc2oc1=O	-2.6%
Cc1ccccc1-c1cc(C(=O)NCc2ccc(OC(F)(F)F)cc2)nn1CC1CC(c2cccc([N+](=O)[O-])c2)=NO1 (stereo not drawn)	-14.5%

New compounds follow.
molecule	VDR inh
O=C(N=C1SC2CS(=O)(=O)CC2N1c1cccc(Cl)c1)C1CCCO1 (stereo not drawn)	-3.5%
CC(C)(C)c1ccc(C(CC(=O)O)NC(=O)c2ccccc2F)cc1 (stereo not drawn)	-14.4%
COc1cccc(/C=C2\SC(N)=NC2=O)c1OS(=O)(=O)c1ccccc1	3.3%
CCC(C(=O)Nc1nnc2n1CCS2)c1ccccc1 (stereo not drawn)	3.7%
COc1ccc(C=NOCC(=O)OCC(=O)Nc2ccc(OC)cc2)cc1	-12.6%
COC(=O)CN1C(C)=Nc2ccc(Br)cc2C1c1ccccc1 (stereo not drawn)	-11.1%
CCOc1ccc(NC(=O)Cn2nnc(C(=O)NCc3cccs3)c2N)cc1	-9.9%&-27.8%
COCCNC(=S)NNC(=O)c1ccc(-n2cnnn2)cc1	1.5%
O=C1CCCC2=C1C1c3ccccc3C(=O)N1c1ccc(C(=O)c3ccccc3)cc1N2 (stereo not drawn)	9.9%
COC(=O)[C@H](CC(C)C)NC(=O)NCc1ccc(Cl)cc1	-1.5%

Remaining list, next part:
molecule	VDR inh
Nc1c(C(=O)O)cnc2nc(N3CCOCC3)nn12	8.2%
CC(C)c1cc(C(=O)OCC(=O)N2CCN(C(=O)c3ccco3)CC2)c(O)c(C(C)C)c1	-15.2%
CC(=O)N1CCCc2cc(S(=O)(=O)Nc3ccc(OC(F)(F)F)cc3)ccc21	-8.4%
COc1ccc(-c2nc3c(c(=O)c4ccccc4n3C)c(=O)n2Cc2ccccc2)cc1	-8.7%
CC(=O)N1CCN(C(=O)C2CCN(S(=O)(=O)c3ccccc3C(F)(F)F)CC2)CC1	-12.4%
Cc1[nH]c2ccc(Br)cc2c(=O)c1CN1CCCCCC1	4.7%
CCNS(=O)(=O)c1ccc2nc(NC(=O)c3cccnc3)sc2c1	-4.6%
Cc1ccc(N2CC(C(=O)Nc3ccc(N4CCOCC4)cc3)CC2=O)cc1C (stereo not drawn)	8.4%
O=C(NC(=S)Nc1ccc(C(=O)N2CCOCC2)cc1)c1ccc([N+](=O)[O-])cc1	21.5%
Cc1ccnc(N2CCC(C(=O)NNC(=O)c3ccncc3)CC2)n1	-14.5%

Entries from the list above that contain a tert-butyl group (four):
molecule	VDR inh
Cn1c(=S)c2[nH]c(SCCC(C)(C)C)nc2n(C)c1=O	-29.7%
Cc1cc(OC(=O)C(C)(C)C)c([N+](=O)[O-])c(=O)[nH]1	-5.5%
CC(C)(C)c1ccc(-c2nnc(SCC(=O)NCC3CCCO3)n2N)cc1 (stereo not drawn)	-4.5%
CC(C)(C)c1ccc(C(CC(=O)O)NC(=O)c2ccccc2F)cc1 (stereo not drawn)	-14.4%

Next section.
molecule	VDR inh
COc1ccc(/C=C2/CC/C(=C\c3ccc(OC)c(OC)c3OC)C2=O)c(OC)c1OC	-22.8%
CCN(CC)CCNC(=O)CCc1n[nH]c(=O)c2ccccc12	-3.9%
CN(C1CCCCC1)S(=O)(=O)c1ccc(C(=O)O)cc1	-3.6%
CCSc1nnc(NC(=O)COc2ccccc2)s1	32.0%[activator]
CCc1ccccc1NC1=NCC(=O)N1Cc1ccc(OC)cc1	-11.1%
CCOc1ccc(C2N(c3cc(Cl)ccc3OC)C(=O)C3CCCN32)cc1OC (stereo not drawn)	-7.9%
COc1cc(/C=C/c2nc3ccccc3c(=O)[nH]2)ccc1OC(F)F	7.0%
CC1(C)CSC(=S)N1S(=O)(=O)c1ccccc1	11.0%
O=C(c1cccnc1Nc1ccc2c(c1)CCC2)N1CCOCC1	-13.1%
CC/C(O)=C1\C(=O)CC(c2ccccc2)CC1=NCCc1c(C)[nH]c2ccc(C)cc12 (stereo not drawn)	-20.2%
